Screens deposited in PubChem by several laboratories.
Vif TR-FRET: inhibitors of Vif binding to APOBEC3G peptide, primary screen, biochemical, TR-FRET, GST-Vif 1-94, biotin-A3G peptide, dose response retest (AID 1117319). Virion infectivity factor (Human immunodeficiency virus type 1 group M subtype B (isolate …. TR-FRET GST-Vif / biotin-A3G peptide binding; higher % means a stronger effect; test concentration not given here; strong numbers were not always called active. inhibition, %, or IC50 in µM where a hit was titrated. 260,000 compounds, 0.57% hits;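 active means above the screen mean plus three standard deviations and confirmed in dose response; inconclusive means results disagree or hit not tested in dose response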;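 further: Vif residues 1-94 fused to GST binding biotinylated APOBEC3G peptide 110-148; 0% = full assay without inhibitor and 100% = GST in place of GST-Vif; retest series ran down from 100 µM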
FGF22 binding: binders of human FGF22 protein, primary screen, FGF22 synaptogenesis inhibitor project, biophysical, thermal shift, single point; 340,000 compounds, 1.5% hits; calls only at 9.99 µM; recombinant FGF22 thermal shift, SYPRO orange fluorescence; percent of sucrose octasulfate shift, DMSO zero; AID 651658, 2012; Fibroblast growth factor 22 (Homo sapiens), Q9HCT0;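 active means melting point raised past a set limit in the mean and every replicate; inconclusive means no clear call; three in four hits are not shown here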
HNF4A DNA FP: change in binding of human HNF4A to DNA, primary screen, biochemical, fluorescence polarization, FITC-DNA | 360,000 compounds, 0.3% hits | 1 h | AID 1224865, 2016 | Hepatocyte nuclear factor 4-alpha (Homo sapiens), P41235 | activity change, % at 10 µM; in the data active means activity change above about 30%, passing the limit was not always enough;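 further: controls were the assay level and a saturating level of protein; the project sought stronger binding though the title names inhibitors; some compounds called inactive have numbers as strong as hits; positive values seem to mean higher polarization but the record does not say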
Target sequence (P41235 whole entry, looked up): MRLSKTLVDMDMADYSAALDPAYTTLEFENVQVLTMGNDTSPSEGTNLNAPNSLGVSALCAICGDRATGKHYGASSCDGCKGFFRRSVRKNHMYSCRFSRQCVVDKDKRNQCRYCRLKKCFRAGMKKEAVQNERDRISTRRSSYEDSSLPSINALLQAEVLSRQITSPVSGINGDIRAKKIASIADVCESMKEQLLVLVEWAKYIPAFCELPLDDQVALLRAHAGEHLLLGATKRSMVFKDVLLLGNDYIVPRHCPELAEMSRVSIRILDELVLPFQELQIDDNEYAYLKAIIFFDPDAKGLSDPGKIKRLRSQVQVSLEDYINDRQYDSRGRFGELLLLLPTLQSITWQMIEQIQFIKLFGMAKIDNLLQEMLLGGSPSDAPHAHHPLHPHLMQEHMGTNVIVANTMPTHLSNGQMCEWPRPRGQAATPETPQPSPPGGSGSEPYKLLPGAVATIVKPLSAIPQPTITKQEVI
UCH37 DUB inh: inhibitors of human UCH37 deubiquitinase, primary screen, biochemical, Ub-AMC cleavage, fluorescence. Ubiquitin carboxyl-terminal hydrolase isozyme L5 (Homo sapiens), Q9Y5K5. purified proteasome/UCH37. inhibition, % (concentration not given with the values). 330,000 compounds, 0.33% hits;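 active means mean of two replicates above 20%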;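 further: 0% = compound-free wells with enzyme and 100% = wells lacking proteasome; stock transfer was 100 nL into about 20 µL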
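assay system = human UCH37 enzyme supplied as purified proteasome complex | amount = proteasome at 0.15 nM in the dispensed enzyme solution | schedule = 30 min compound-proteasome preincubation then 25 min substrate reaction, room temperature | measured by = fluorescence, ex 355 nm, em 460 nm | benchmarks = no-proteasome wells (full inhibition) and compound-free wells (no inhibition)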
AF4-AF9 inh: inhibitors of AF4 peptide binding to AF9, primary screen, biochemical, AlphaScreen, biotin-AF4 peptide, FLAG-AF9, single point; inhibition, % at 10 µM; AID 651704, 2012; 350,000 compounds, 0.47% hits;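 active means every replicate reaching a set inhibition limit, whatever the replicate mean, cut at about 25% in these data; inconclusive means mean inhibition reaches that limit but some replicates miss it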;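 further: 0% = plate neutral control median and 100% = total signal loss; the record names both 10 and 1 µM as test concentration; the first replicate is given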
Target sequence (P42568 whole entry, looked up): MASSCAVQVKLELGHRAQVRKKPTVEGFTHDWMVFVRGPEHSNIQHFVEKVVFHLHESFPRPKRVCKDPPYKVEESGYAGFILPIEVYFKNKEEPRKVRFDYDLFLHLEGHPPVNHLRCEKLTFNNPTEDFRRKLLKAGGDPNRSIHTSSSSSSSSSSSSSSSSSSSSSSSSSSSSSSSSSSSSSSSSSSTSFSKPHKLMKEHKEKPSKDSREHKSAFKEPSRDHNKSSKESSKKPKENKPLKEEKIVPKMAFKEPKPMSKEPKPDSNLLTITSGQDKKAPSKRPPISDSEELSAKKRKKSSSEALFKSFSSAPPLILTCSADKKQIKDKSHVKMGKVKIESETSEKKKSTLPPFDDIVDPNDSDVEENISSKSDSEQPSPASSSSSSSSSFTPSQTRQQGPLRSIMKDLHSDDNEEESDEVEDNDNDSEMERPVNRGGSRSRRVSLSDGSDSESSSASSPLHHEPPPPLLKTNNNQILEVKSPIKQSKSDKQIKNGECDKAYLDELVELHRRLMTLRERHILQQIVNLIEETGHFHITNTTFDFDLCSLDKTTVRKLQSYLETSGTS
RanGTP-Impb inh: inhibitors of RanGTP-importin-beta interaction, primary screen, biochemical, FRET, CFP-Ran, YFP-importin-beta, homogeneous; AID 2216, 2009; 300,000 compounds, 1.1% hits; cell-free CFP-Ran/YFP-importin-beta FRET ratio; inhibition, % (no concentration beside the values); Ran GTPase (GTP-bound) - importin-beta complex;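 active means most replicates above 15%; inconclusive means exactly half above 15%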;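 further: 0% = DMSO wells and 100% = Ran loaded with GDP instead of GTP; wells of about 40 µL received 100 nL stock; the first replicate is given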
E coli growth: E. coli growth inhibition, primary screen, OD600; 330,000 compounds, 0.21% hits; OD600 absorbance (no concentration beside the values); Escherichia coli growth, 23 h; hits give low values;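 active means OD600 absorbance below the run mean of sample wells minus 3.6 SD, in any replicate, cut at about 0.56 in these data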;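 further: stock transfer was 300 nL into about 60 µL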
Starred values were filed as active, the others as inactive; i = inactive; ? = inconclusive; nt = no result given. A portion of the library; count on the stated rates, not on these rows.

The line under a structure holds: RanGTP-Impb inh | E coli growth | HNF4A DNA FP | FGF22 binding | Vif TR-FRET | UCH37 DUB inh | AF4-AF9 inh
CC1=C(C(=O)NCCN2CCN(C)CC2)C2(CCC(C)CC2)OC1=O (stereo not drawn)
  5.1 | 0.636 | -1.6 | nt | -1.2% | 0.2 | nt
Cc1ccc(C)c(NC(=O)CSc2nc(C)cs2)c1
  nt | 0.666 | 3.0 | i | nt | -0.3 | 1.0
C/C(=N\NC(=O)c1cc(C2CC2)nc2ccccc12)c1ccc(C)s1
  -7.0 | nt | 0.2 | nt | 5.0% | nt | nt
C=C(Cl)COc1ccc2c(CC)cc(=O)oc2c1
  nt | 0.673 | -3.3 | i | 12.4% | -38.7 | 1.5
CCOC(=O)[C@@H]1[C@H]2COc3ccc(Br)cc3[C@H]2N2C(=O)N(c3ccc(F)cc3)C(=O)[C@@]12C
  1.0 | nt | -1.7 | nt | nt | 0.1 | nt
O=C(CN(Cc1cccs1)S(=O)(=O)c1ccc(S(=O)(=O)N2CCCCC2)cc1)Nc1ccccc1
  -0.8 | 0.701 | 2.5 | i | -3.3% | -0.7 | 5.7
Cc1ccccc1/C=N/n1c(C2CCCCC2)n[nH]c1=S
  ? | nt | 0.4 | i | 3.2% | nt | -2.8
Cc1occc1C(=O)N/N=C/C(Br)=C/c1ccccc1
  0.9 | nt | 0.8 | i | -1.7% | nt | 10.8
Cc1ccc(SCC(=O)NCCSCc2ccccc2)cc1
  4.3 | 0.723 | -0.1 | i | -7.6% | -0.6 | 0.2
O=C(NC1CCCCC1)c1ccc2c(c1)OCO2
  -0.5 | 0.7 | -0.2 | i | -5.3% | 3.9 | -6.1
COc1ccccc1NC(=O)CCC(=O)O
  7.3 | 0.747 | 2.2 | nt | -7.2% | 5.0 | nt
C(=N\N1CCN(c2ccccc2)CC1)/c1ccccc1
  -3.1 | nt | 5.1 | i | 9.4% | nt | 9.4
Cc1cccc(C)c1NC(=O)C1CCCN1S(=O)(=O)c1ccccc1 (stereo not drawn)
  -4.0 | 0.663 | 2.2 | i | nt | 6.2 | -1.5
COc1ccc(CC(=O)NCc2n[nH]c(=S)n2C)cc1
  ? | 0.694 | 8.5 | i | -0.6% | -1.1 | -2.4
COc1cccc(OC(C)c2ccnc3nc(/N=C/N(C)C)nn23)c1 (stereo not drawn)
  6.9 | nt | 2.3 | nt | 10.9% | nt | nt
Cc1ccc(Nc2cc(-n3cccn3)ncn2)c(C)c1
  -0.1 | 0.649 | -2.2 | i | -6.7% | 2.1 | -5.9
CC(C)CNC(=O)C1(C)CCCN1C(=O)c1cncc(Br)c1 (stereo not drawn)
  nt | nt | 3.6 | i | nt | nt | -3.0
CN1C(=O)N(C)C2C1N(C)S(=O)(=O)N2C (stereo not drawn)
  1.3 | 0.761 | 5.3 | nt | -3.6% | -0.2 | nt
Cn1nc2c3ccccc3n(Cc3ccccc3)c2nc1=S
  -2.4 | 0.648 | -0.6 | i | nt | 1.0 | -2.6
Cc1ccc(N(c2ncnc(N)c2[N+](=O)[O-])C2CCCCC2)cc1
  -3.8 | 0.721 | -0.5 | nt | -1.0% | -1.1 | nt

The line under a structure holds: RanGTP-Impb inh | E coli growth | HNF4A DNA FP | FGF22 binding | Vif TR-FRET | UCH37 DUB inh | AF4-AF9 inh
O=C(O)CN1C(=O)/C(=C\C(Br)=C\c2ccccc2)SC1=S
  4.0 | 0.625 | -6.7 | i | 8.8% | 11.9 | 0.3
CCCC(=O)Nc1ccc(NC(=O)c2cccs2)cn1
  -0.5 | 0.694 | -1.6 | nt | 6.5% | 1.3 | nt
O=C(CNCc1ccccn1)Nc1cc(S(=O)(=O)N2CCCCC2)ccc1Cl
  -0.7 | 0.705 | 0.2 | i | -7.1% | -0.5 | 0.0
C=CCNC(=O)/C(C#N)=C/c1ccc(C)o1
  -3.5 | 0.684 | -0.5 | i | -2.5% | 21.9* | -2.4
Fc1ccc(C2c3[nH]c4ccccc4c3CCN2CCCn2cccn2)cc1 (stereo not drawn)
  6.1 | 0.679 | 1.5 | i | 17.9% | -44.5 | -27.1
O=C(NCC1CCCO1)Nc1ccccc1 (stereo not drawn)
  -6.9 | 0.729 | -3.1 | nt | ? | 1.0 | nt
COc1cccc(-c2nc(NCc3ccccc3)c3ccccc3n2)c1O
  0.6 | 0.708 | 3.7 | i | 3.2% | 3.3 | -0.5
Cc1ccc(/C=C2/SC(=S)N(CCCC(=O)Nc3cc([N+](=O)[O-])ccc3O)C2=O)cc1
  -1.4 | 0.73 | 1.0 | i | -7.2% | 5.0 | -1.7
O=C(CSc1nnc(COc2ccc(Cl)cc2)o1)Nc1ccc(N2CCOCC2)cc1
  nt | 0.713 | 0.9 | i | 10.3% | 2.4 | -0.3
CCOC(=O)C1(C)CCCCN1C(=O)c1ccoc1 (stereo not drawn)
  nt | nt | 0.5 | i | nt | nt | -1.9
COc1cc(C(=O)Nc2ccncc2)cc(OC)c1OC
  0.8 | 0.682 | -0.3 | i | -1.4% | 0.8 | 4.0
Cc1cc(=O)n2[nH]c(-c3cccc(Cl)c3)cc2n1
  0.9 | 0.617 | 1.0 | i | 11.4% | -5.6 | 1.8
N#Cc1cc(-c2ccc(Cl)cc2)cn(Cc2c(Cl)cccc2Cl)c1=O
  nt | 0.729 | -2.6 | nt | 24.0% | -95.8 | nt
CC(C)(C)c1ccc(C(=O)N2CCN(S(=O)(=O)c3ccc(Br)s3)CC2)cc1
  nt | 0.703 | -3.7 | i | -1.3% | 2.4 | -0.8
O=S1(=O)CC(NCc2ccccc2)C(Nc2ccccc2)C1 (stereo not drawn)
  6.6 | 0.634 | -6.0 | i | ? | 0.7 | -22.7
Cc1cccc(NC(=O)CSc2nc(NS(=O)(=O)c3ccccc3)cc(=O)[nH]2)c1
  -13.2 | 0.68 | -2.1 | i | ? | 2.1 | -1.7
Cn1c(N)nc2ccccc2c1=O
  -0.5 | 0.686 | -0.9 | i | -0.5% | -50.8 | nt
Cc1cc(C(=O)NC2CC(C)(C)Cc3c2cnn3-c2ccccc2)n(C)n1 (stereo not drawn)
  1.7 | 0.75 | -2.5 | i | nt | 4.8 | -1.9
CC(=O)Nc1ccc(S(=O)(=O)N2CCC3(CC2)CC(=O)c2ccccc2O3)cc1
  -4.3 | 0.65 | 2.6 | i | 1.0% | -28.3 | 0.4
CC(C)C[C@@H](CN)NC(=O)c1nc[nH]c1C(=O)N[C@@H](Cc1ccccc1)C(=O)CNC[C@H](C)NC(=O)c1nc[nH]c1C(=O)N[C@@H](C)C(=O)O
  nt | nt | -1.7 | i | -0.2% | nt | 4.5

The line under a structure holds: RanGTP-Impb inh | E coli growth | HNF4A DNA FP | FGF22 binding | Vif TR-FRET | UCH37 DUB inh | AF4-AF9 inh
CC(C)OP(=O)(c1ccc(N(C)C)cc1)C(O)c1c(Cl)cccc1Cl (stereo not drawn)
  -1.5 | 0.718 | 1.3 | nt | 3.0% | 0.5 | nt
O=C(NCc1ccccc1)NC1(C(=O)N2CCN3CCCC3C2)CCCCC1 (stereo not drawn)
  -0.7 | 0.75 | -0.8 | nt | 2.6% | 2.9 | nt
NC(=O)c1ccc(C(=O)N/N=C(/Cc2ccccc2)c2ccccc2)cc1
  0.7 | nt | 1.4 | i | nt | nt | 1.0
COc1ccc(/C(C)=N/OC/C(O)=C(\C#N)c2nc3ccccc3[nH]2)cc1OC
  ? | nt | 8.0 | i | 5.0% | nt | 0.0
C=CCNC(=S)N1CCN(S(=O)(=O)c2ccc(C)cc2)CC1
  0.4 | 0.695 | 1.5 | i | -3.2% | 4.4 | -33.9
CC1(C2CC(=O)c3c(O)ccc(O)c3C2)OCCO1 (stereo not drawn)
  nt | nt | 4.2 | i | 3.1% | nt | -0.4
CCOC(=O)CC1Sc2ccccc2NC1=S (stereo not drawn)
  1.4 | nt | -2.6 | i | 5.0% | nt | nt
COC(=O)c1ccccc1NC(=O)NCc1ccncc1
  3.8 | nt | 1.2 | i | nt | nt | 0.3
Cc1cc(C)nc(Nc2nc(C(N)CCc3ccccc3)cs2)n1 (stereo not drawn)
  nt | nt | 0.7 | i | nt | nt | 9.2
COc1ccc2cc(/C=N/O)c(Cl)nc2c1
  -1.1 | nt | 4.7 | i | 8.3% | nt | 0.1
CC1(C)Oc2ccc(NC(=O)C3COc4ccccc4O3)cc2O1 (stereo not drawn)
  -1.3 | 0.723 | -2.4 | nt | -3.5% | 0.3 | nt
O=C(COc1ccccc1Cl)NCC(c1cccs1)N1CCOCC1 (stereo not drawn)
  4.1 | 0.674 | 0.5 | i | -11.4% | -0.6 | 1.0
CN(C(=O)COC(=O)C12CC3CC(CC(Cl)(C3)C1)C2)c1ccccc1
  nt | 0.691 | 6.2 | i | 0.6% | 2.7 | 6.0
CCc1ccccc1NC(=O)COC(=O)C1C2CC3OC(=O)C1C3C2 (stereo not drawn)
  3.1 | 0.694 | 0.9 | i | -3.5% | 2.4 | 7.2
COc1cccc(CN(C)CC(=O)N2CCN(S(=O)(=O)c3ccccc3)CC2)c1
  nt | nt | -1.3 | i | nt | nt | -0.4
CCOC(=O)c1sc(N2N=C(C)C(N=Nc3cccc(C)c3)C2=O)nc1C (stereo not drawn)
  -0.4 | 0.72 | 3.8 | i | nt | 15.1 | 11.9
CCCCn1c(N)c(N(CC(C)C)C(=O)c2cc(S(=O)(=O)N3CCCCC3)ccc2C)c(=O)[nH]c1=O
  0.3 | 0.659 | -3.1 | i | 2.0% | -2.1 | 9.2
Cc1ccc(S(=O)(=O)NCCC(=O)NC2CCCCC2C)cc1 (stereo not drawn)
  nt | 0.708 | 1.2 | i | 0.5% | 1.7 | 0.3
CC(C)COC(=O)Nc1nnc(Cc2ccccc2)s1
  -2.0 | 0.722 | -2.9 | i | nt | -0.7 | -1.3
Nc1cc(CN2C(=O)c3ccccc3C2=O)cc(Cl)c1O
  1.7 | 0.667 | 5.3 | nt | ? | 5.2 | nt

Full records from above:
Record of Cc1ccc(Nc2cc(-n3cccn3)ncn2)c(C)c1 = RanGTP-Impb inh = -0.1; E coli growth = 0.649; HNF4A DNA FP = -2.2; FGF22 binding = i; Vif TR-FRET = -6.7%; UCH37 DUB inh = 2.1; AF4-AF9 inh = -5.9
Record of NC(=O)c1ccc(C(=O)N/N=C(/Cc2ccccc2)c2ccccc2)cc1 = RanGTP-Impb inh = 0.7; E coli growth = nt; HNF4A DNA FP = 1.4; FGF22 binding = i; Vif TR-FRET = nt; UCH37 DUB inh = nt; AF4-AF9 inh = 1.0

(listing goes on)
The line under a structure holds: RanGTP-Impb inh | E coli growth | HNF4A DNA FP | FGF22 binding | Vif TR-FRET | UCH37 DUB inh | AF4-AF9 inh
O=C(CC1CCCCC1)NCCOc1ccccc1
  -2.3 | 0.685 | 3.6 | nt | 0.1% | 0.8 | nt
CCCCc1nnc(NC(=O)c2ccccc2OCc2c(C)noc2C)s1
  -2.6 | 0.668 | 1.7 | i | 3.2% | -5.5 | 2.2
CCC1(C)Cc2c(sc3nc(NC)n(C)c(=O)c23)CO1 (stereo not drawn)
  1.1 | 0.686 | 4.4 | nt | 14.8% | -14.7 | nt
O=C(C1CC(=O)N(c2ccc(F)cc2)C1)N1CCN(c2ccccc2)CC1 (stereo not drawn)
  -0.9 | nt | -2.0 | i | nt | nt | -0.5
Cc1ccc(CNC(=O)CN2C(=O)COc3ccc(S(=O)(=O)N4CCCCC4)cc32)o1
  1.4 | 0.636 | -1.5 | i | nt | 2.3 | -2.2
